TRPML1 blocker – qHTS for Inhibitors of the Human Mucolipin Transient Receptor Potential 1 (TRPML1); activity change, negative = inhibition, % (test concentration not listed); Mucolipin-1 (Homo sapiens), Q9GZU1; TRPML1-inducible cells, Ca2+ dye fluorescence, FDSS; active compounds read low; inhibition of EC80 agonist-evoked calcium signal; 0.02% of 390,000 active; in the data active means activity change below about -50%; inconclusive means about -30% to -50%; inactive means above about -30%;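 note: stimulus is agonist 54-4 at its EC80 concentration; % is set by controls: 0 for no effect and ±100 for the full control effect; compound concentration not given in the record; the text of the record puts the active cut at -80%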
Target sequence (Q9GZU1 whole entry, looked up): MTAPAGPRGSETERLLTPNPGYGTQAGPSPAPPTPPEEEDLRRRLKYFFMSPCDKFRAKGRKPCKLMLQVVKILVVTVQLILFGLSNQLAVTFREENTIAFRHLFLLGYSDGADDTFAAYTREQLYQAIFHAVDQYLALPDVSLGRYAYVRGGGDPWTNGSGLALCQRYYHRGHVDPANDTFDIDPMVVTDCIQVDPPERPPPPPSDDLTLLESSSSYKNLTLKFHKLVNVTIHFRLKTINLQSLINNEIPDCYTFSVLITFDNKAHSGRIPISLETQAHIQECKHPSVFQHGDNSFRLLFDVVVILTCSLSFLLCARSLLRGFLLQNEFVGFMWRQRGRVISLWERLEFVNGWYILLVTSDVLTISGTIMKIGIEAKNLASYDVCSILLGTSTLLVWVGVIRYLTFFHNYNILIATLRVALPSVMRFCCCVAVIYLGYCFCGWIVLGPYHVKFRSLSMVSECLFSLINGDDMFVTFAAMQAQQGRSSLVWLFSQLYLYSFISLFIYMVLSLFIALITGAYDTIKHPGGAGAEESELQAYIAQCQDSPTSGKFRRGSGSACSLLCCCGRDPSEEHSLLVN
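Calcium fluorescence in TRPML1-DL cells induced overnight with Tet: a 110 s read after compound pin addition, then a 110 s antagonist read after challenge with 54-4 at 4 uM final (EC80).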
ClpP mod – qHTS Assay for Activators of ClpP; ATP-dependent Clp protease proteolytic subunit (Bacillus subtilis (strain 168)), P80244; purified B. subtilis ClpP, FRET peptide cleavage, 20 min; Potency, µM (doses to about 57.5 µM), without a hit: at the top dose activity change, negative = active; 1.9% of 340,000 active; active = well fitted falling curve with a large enough effect; inconclusive = small, poorly fitted or top-dose-only effect; inactive = no such curve, though single readings can be large or run the other way; note: potency is the fitted concentration of half-maximal effect; the source files actives as falling curves though it sought activators and does not explain the sign; nearly all actives have a fitted effect of over 65% in size; many hits overshoot -100%
Target sequence (P80244 whole entry, looked up): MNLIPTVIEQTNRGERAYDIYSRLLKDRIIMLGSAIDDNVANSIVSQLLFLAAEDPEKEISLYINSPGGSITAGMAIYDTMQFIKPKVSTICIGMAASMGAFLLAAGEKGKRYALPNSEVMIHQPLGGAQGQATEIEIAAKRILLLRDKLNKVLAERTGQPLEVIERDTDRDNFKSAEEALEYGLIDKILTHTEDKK
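FRET quenching reversal measured ClpP activation: 10 microg/mL B. subtilis ClpP at pH 8 with the FRET-FV decapeptide, read at 430 nm after 320 nm excitation. The 20-min minus 0-min signal was scaled between DMSO/no-enzyme wells and ADEP (5.8 microM final).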
TRPML1 ag – qHTS for Agonists of the Human Mucolipin Transient Receptor Potential 1 (TRPML1). Mucolipin-1 (Homo sapiens), Q9GZU1. TRPML1-expressing cells, Ca2+ dye fluorescence, FDSS; host cell line not named in the record; reference of the full effect not given here. activation, % (no concentration beside the values). 0.12% of 410,000 active; in the data active = activation above about 50%; inconclusive = about 30% to 50%; inactive = below about 30%; note: 0% is about no effect; the text of the record puts the active cut at 80%
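TRPML1-DL cells, Tet-induced overnight (~16 h, 37 degrees C), loaded 45-90 min at room temperature with Ca8 no-wash calcium dye plus quencher. FDSS fluorescence: 10 s baseline, compound pin-transfer, 110 s agonist read, then EC80 54-4 (4uM final) and 110 s antagonist read.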
gsp antagonist – qHTS for Antagonists of gsp, the Etiologic Mutation Responsible for Fibrous Dysplasia/McCune-Albright Syndrome: qHTS. 0.4% of 340,000 active. Potency, µM (titrated, usually from 76.9 µM), for inactives: at the top dose activity change, negative = inhibition, most hits filed as inhibitors. gsp-mutant cells, cAMP HTRF, 30 min; control for the full effect not named in the record; active = falling curve of any shape with a large fitted effect; inconclusive = falling curve, mostly with a smaller effect; inactive = flat or rising curve; cell line not stated here;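 note: intracellular cAMP measured with PDE inhibitor Ro 20-1724 present during compound exposure; potency is the fitted concentration of half-maximal effect; % is set by controls: 0 for no effect and ±100 for the full control effect; nearly all actives have a fitted effect of over 65% in size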
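Cells, 2000/well, grown 16–24 h in DMEM 10% FBS with 0.5 mg/ml G418, then compounds plus […] (300 uM addition stock), 30 min at 37C. cAMP read by HTRF (cAMP-d2 and anti-cAMP antibody-K in lysis buffer) after 30 min RT.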
gsp agonist – qHTS for Agonist of gsp, the Etiologic Mutation Responsible for Fibrous Dysplasia/McCune-Albright Syndrome: qHTS. gsp mutant cells, cAMP HTRF, 30 min; control for the full effect not named in the record. Potency, µM (doses to about 76.9 µM), for inactives: at the top dose activation (cAMP increase), most hits filed as activators. 0.13% of 340,000 active. AID 624287, 2012; active = well fitted activation curve with a large enough effect; inconclusive = small, poorly fitted or top-dose-only effect, or another doubt; inactive = no such curve, though single readings can be large or run the other way; cell line not stated here;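 note: phosphodiesterase inhibitor Ro 20-1724 added with compounds to block cAMP breakdown; potency is the fitted concentration of half-maximal effect; nearly all actives have a fitted effect of over 60% in size; about a fifth of the inactives were tested at one dose only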
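Cells in DMEM/10% FBS with G418 were pretreated with compounds in DMSO plus […] (300 uM stock) for 30 min at 37C. cAMP was measured by HTRF (cAMP-d2 plus anti-cAMP antibody-K) after 30 min at room temperature.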
Menin-MLL FL inh – qHTS Assay for Inhibitors Targeting the Menin-MLL Interaction in MLL Related Leukemias: Competition With Fluorescein Labeled MLL-derived Peptide | Fluorescence polarization, fluorescein-MLL peptide displacement from menin | AID 1766, 2009 | FP activity change, % at 61.4 µM | 290,000 tested, under 10 active; inconclusive = falling polarisation curve, or a change in total fluorescence; inactive = total fluorescence flat and polarisation flat or rising; no compound was filed as active; the % refers to the polarisation; negative = inhibition;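 note: % of control where 0% means no effect; inhibitors lower the polarisation; unlabelled MLL peptide was the positive control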
* marks the source's active call; other numbers are inactive results; ? = inconclusive; / = no result given; & = joins results of further samples; [ ] = another dose, or the depositor's remark. An unsorted share of the library; any-hit rate near 2.1%.

Value order – TRPML1 blocker, ClpP mod, TRPML1 ag, gsp antagonist, gsp agonist, Menin-MLL FL inh
- O=C(Nc1nnc(SCc2ccccn2)s1)C1CC(=O)N(c2ccccc2)C1 (stereo not drawn)
  0, 2.9%, 0.6, -1%, 8%, -0.3
- CCCOc1cccc(-c2nnc(N)s2)c1
  6, -6.6%, -0.5, -3%, 17%, 0.4
- COc1ccc2nc(-c3cccc(N)c3)[nH]c2c1
  -13, ?, 0.7, 2%, -2%, 4.7
- COc1ccc(C2CC(=O)N(CC(=O)NCC3CCCO3)c3ccccc3S2)cc1OC (stereo not drawn)
  2, -0.7%, 0.0, 2%, 17%, 2.3
- CCN(C(=O)CSc1nc2ccccc2[nH]1)C1CCS(=O)(=O)C1 (stereo not drawn)
  6, 0.8%, -0.1, 3%, 18%, /
- CCOc1ccc(C(c2c(C)n(C)n(-c3ccccc3)c2=O)c2c(C)n(C)n(-c3ccccc3)c2=O)c(O)c1
  -5, -0.8%, -0.1, -10%, -1%[15.4 µM], /
- O=C(c1ccccc1)C(c1ccccc1)c1ccccc1
  -14, 1.8%, 1.2, -21%, -21%, /
- CNC(=O)NC(=O)CSc1ncc(C(F)(F)F)cc1Cl
  6, -1.2%, 1.0, 14%, 29%, 4.8
- CSc1ccc(CNC(=O)Cn2nc(N3CCN(c4ccccc4)CC3)ccc2=O)cc1
  5, 0.1%, 2.3, /, /, /
- Cc1cc(C)c(OCC(=O)OCC(=O)NC2CCCCCCC2)c(C)c1
  -6, -0.9%, 2.0, 6%, 9%, /
- CCOC(=O)N1CCC2(CC1)C(C#N)=C(N)Oc1c2c(C)nn1-c1cccc(Cl)c1
  15, -2.7%, 1.5, -15%, -12%, ?
- COc1ccc(S(=O)(=O)NCc2nc(-c3ccccc3)no2)cc1
  -1, 0.6%, -0.6, /, /, /
- COc1cc2c(cc1OC)C(COc1ccc(C(C)C)cc1)NCC2 (stereo not drawn)
  -6, -2.4%, -1.3, -1%, -3%, /
- O=C(CNC(=O)c1ccco1)OCC(=O)c1cccc2ccccc12
  2, -0.8%, -1.1, 3%, -51%[inhibitor], 1.4
- Cc1ccc(C)c(OCCn2cc(/C=C(\C#N)C(=O)NCc3ccco3)c3ccccc32)c1
  32, 0.7%, 1.0, -3%, 2%, 9.1
- COc1ccc(C2CC(=O)C(C=NCCCO)=C(O)C2)cc1 (stereo not drawn)
  /, 1.6%, /, 0%, -18%, ?
- COc1ccc(/C=N/NC(=O)c2cccnc2)c(C(=O)O)c1OC
  -16, -1.0%, -0.8, 5%, 9%, -1.5
- OCC[C@@H]1C[C@H](O)[C@@H](O)[C@@]2(CCc3ccccc3CO2)O1
  -2, -0.4%, 0.1, -5%, /, -0.3
- Cc1ccc(CN(CC(=O)NCC2CCCO2)S(=O)(=O)c2ccc(C)cc2)cc1 (stereo not drawn)
  -6, /, -0.1, -2%, -39%, 1.5
- CC(=O)NS(=O)(=O)c1ccc(NC(=O)c2ccc(NC(=O)c3cccs3)cc2)cc1
  -7, 0.4%, 0.4, -6%, 20%, /

(cont.)
Value order – TRPML1 blocker, ClpP mod, TRPML1 ag, gsp antagonist, gsp agonist, Menin-MLL FL inh
- Cc1ccc(N2CCN(c3nc4ccccc4n4nnnc34)CC2)c(C)c1
  0, -18%, 0.6, /, /, /
- CCOc1ncccc1C(=O)OCC(=O)c1cccs1
  -5, 1.0%, 2.7, 9%, 17%, 0.1
- C[C@H](NC(=O)C1CCN(S(=O)(=O)c2ccccc2)CC1)C(=O)NCc1cccnc1
  -5, -3.2%, -0.2, /, 0%, /
- Cc1ccc(NC(=O)CSc2ccc(-c3ccc4c(c3)OCO4)nn2)cc1F
  -19, 0.9%, 1.7, 0%, 19%, 2.0
- CC(=O)Nc1ccc(S(=O)(=O)Nc2ccc(N3CCOCC3)c(F)c2)cc1
  -10, 1.7%, 0.0, 0%, 21%, 1.7
- COCCN(C(C)=O)c1nnc(-c2ccccn2)s1
  3, ?, -0.5, 18%, 16%, -9.3
- COc1ccccc1N(CCC#N)C(=O)CSc1nnc2ccccn12
  -16, -9.9%, 0.2, 5%, ?, /
- CCCCNC(=O)C1CCN(S(=O)(=O)N2CCOCC2)CC1
  33, /, 0.2, 5%, 0%, -3.0
- O=C1CCC(C(=O)OCC(=O)N2N=C3/C(=C\c4ccccc4)CCCC3C2c2ccccc2)N1 (stereo not drawn)
  2, 1.3%, 0.3, ?, -4%[15.4 µM], /
- O=C(O)c1c(-c2ccccc2)c2oc3ccccc3c2[nH]c1=O
  2, ?, 0.0, 5%, 40µM*, -0.7
- CCOC(=O)N1CCc2c(sc3c2c(=O)n(Cc2ccccc2)c(=O)n3Cc2ccc(C)cc2)C1
  -11&15, -3.5%&-4.1%, 1.3&0.2, 4%, 1%, 1.1
- CCCC(c1nnnn1Cc1ccc(F)cc1)N1CCN(CC)CC1 (stereo not drawn)
  28, /, 2.2, -5%, 0%[15.4 µM], 0.1
- C[C@H](CO)N1C[C@H](C)[C@@H](CN(C)CC2CCCCC2)Oc2ccc(NS(C)(=O)=O)cc2C1=O
  0, -0.7%, -0.2, 8%, ?, /
- CCOc1ccc(NC(=O)c2ccccc2OC)cc1
  -15, 0.0%, 0.4, 4%, 14%[15.4 µM], -0.7
- CCCOC(=O)c1ccc(NC(=O)c2cc(=O)[nH]c3ccccc23)cc1
  -13, 6.0%, 0.7, -2%, -8%, -1.1
- Cc1ccc(OCCNC(=O)CNC(=O)c2ccc(Cl)c([N+](=O)[O-])c2)cc1
  17, -0.3%, -1.6, -14%, ?, /
- C=CCN1C(=O)c2ccc(C(=O)N(C)CC(=O)Nc3ccccc3C(F)(F)F)cc2C1=O
  -1, -8.5%, 0.3, 8%, -2%[15.4 µM], /
- COc1ccc(C(=O)O)cc1S(=O)(=O)NC1CCN(Cc2ccccc2)CC1
  -3, -2.7%, -0.3, 9%, -11%[15.4 µM], /
- COc1cccc(N2CCN(CC(=O)Nc3nc4c(s3)CC(C)CC4)CC2)c1 (stereo not drawn)
  22, -0.6%, 1.0, -15%, ?, 5.8
- CCn1cc(C(=O)NCC2CCCO2)c(=O)c2cc(S(=O)(=O)N(C)C)ccc21 (stereo not drawn)
  0, -4.4%, 0.7, -4%, -46%[inhibitor], -0.6

Compound profiles, as listed above:
Entry for CCOc1ncccc1C(=O)OCC(=O)c1cccs1 : TRPML1 blocker: -5; ClpP mod: 1.0%; TRPML1 ag: 2.7; gsp antagonist: 9%; gsp agonist: 17%; Menin-MLL FL inh: 0.1
Entry for C[C@H](NC(=O)C1CCN(S(=O)(=O)c2ccccc2)CC1)C(=O)NCc1cccnc1 : TRPML1 blocker: -5; ClpP mod: -3.2%; TRPML1 ag: -0.2; gsp antagonist: /; gsp agonist: 0%; Menin-MLL FL inh: /

The list goes on:
Value order – TRPML1 blocker, ClpP mod, TRPML1 ag, gsp antagonist, gsp agonist, Menin-MLL FL inh
- O=c1ccc2ccc(OCCOc3cccc(Cl)c3)cc2o1
  29, 3.6%, 5.6, -3%, -50%[inhibitor], /
- O=C(N/N=C/c1cccc(O)c1)c1ccc2c(c1)OCCO2
  27, -0.1%, 0.6, 4%, 3%, /
- CCCCN(CC)CCCNC(=O)Cn1nc(CC)n2c(cc3sccc32)c1=O
  4, -17%, -0.5, /, /, /
- COc1cc(NC(=O)C2CCCN(S(=O)(=O)c3ccc4c(c3)CCCN4C(C)=O)C2)cc(OC)c1 (stereo not drawn)
  -1, -3.7%, 2.5, -20%, 2%, -1.4
- Cc1nc(CNS(=O)(=O)c2ccc3ccccc3c2)cs1
  -9, -0.8%, -0.1, -5%, ?, 2.2
- Cn1c(C(=O)N2CCCC(C(=O)c3ccc(C(F)(F)F)cc3)C2)cc(=O)n(C)c1=O (stereo not drawn)
  5, /, 0.0, 3%, -3%, 0.5
- O=C(Cc1cccs1)N1CCCC(c2nc3c(nnn3Cc3ccccc3Cl)c(=O)[nH]2)C1 (stereo not drawn)
  12, -0.2%, 0.5, -5%, 17%, 1.2
- Nc1ncc(S(=O)(=O)NCc2ccccc2F)cn1
  -12, -1.6%, -0.1, /, /, /
- C=CC[C@@H](CC(=O)NCCO)C(=O)N[C@H](COC(=O)[C@H](CC=C)CC(=O)OC(C)(C)C)Cc1c[nH]c2ccccc12
  5, 1.1%, 1.1, -2%, /, /
- CCc1ccc(Cn2nnc(C(=O)Nc3ccc(C)cc3)c2N)cc1
  7, -3.1%, 0.2, /, /, /
- COC(=O)c1ccc(NC(=O)CC2C(=O)N(c3ccc(Cl)cc3)C(=O)N2Cc2cccs2)cc1 (stereo not drawn)
  21, -2.5%, -0.2, /, /, /
- Cc1ccccc1Oc1ccc(Oc2ccccc2C)nn1
  -3, -14%, 1.3, 1%, -51%[inhibitor], 49[activator]
- O=C(N/N=C/c1ccccc1O)C1(O)c2ccccc2-c2ccccc21
  41, -18%, 2.0, ?, -50%[inhibitor], 4.0
- COc1ccc(C(=O)Nc2ccc3c(c2)CCCN3S(=O)(=O)c2ccc(C)cc2)cc1
  39, -7.3%, -0.6, /, /, /
- O=C(Nc1ccc(Cl)c(Cl)c1)Nc1nnc(CC2=CCCCC2)s1
  11, -1.0%, 0.2, 7%, ?, 1.1
- Cc1c(Cl)cccc1NC(=O)CCC(=O)NNC(=O)c1ccco1
  4, 0.8%, 0.1, 10%, -85%[inhibitor], 1.7
- CN(C)S(=O)(=O)N1CCC(CCCC2CCN(S(=O)(=O)N(C)C)CC2)CC1
  22, 1.3%, 0.6, 2%, -27%, 0.8
- N/C(Cc1ccc([N+](=O)[O-])cc1)=N\OC(=O)CC1CCCCC1
  0, 1.1%, -0.5, -2%, -37%[inhibitor], 3.2
- CCOc1ccc(C(=O)N2CCCC(c3nc(-c4cccs4)no3)C2)cc1 (stereo not drawn)
  1, /, -0.8, -7%, -18%[15.4 µM], -11
- CCn1c(SCC(=O)NCC2CCCO2)nc2ccccc21 (stereo not drawn)
  -2, -2.8%, 2.1, 1%, 11%, /
- CC1(Cc2ccc3ccccc3n2)C(=O)Nc2ccc(OC(F)(F)F)cc21 (stereo not drawn)
  -7, -1.0%, 0.5, /, /, /
- COc1ccccc1/C=C1\SC(=O)N(CC(=O)N(C)C2CCS(=O)(=O)C2)C1=O (stereo not drawn)
  -6, -4.3%, -0.1, -2%, -12%, -5.2
